Compound activity (PubChem BioAssay)
Mtb hypoxia rep – Mtb hypoxia fluorescent reporter inhibition. actives 0.1% (n = 300,000). fluorescence inhibition, % (concentration not given with the values). M. tuberculosis hypoxia-regulated fluorescent reporter, fluorescence;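 active = 35 to 45% if threefold the growth effect, above 45% if 1.5-fold the growth effect; inactive = the rest, general growth blockers included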;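 also: wells of about 50 µL received 100 nL stock; 0% = vehicle wells and 100% = reference inhibitor wells; whole bacteria with a GFP reporter of the hypoxia response; strong numbers were not always called active; many hits fall short of the cut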
Sa ugtP lethal – kills S. aureus RN4220 lacking UgtP; AID 1259309; growth inhibition, % (concentration not given with the values); S. aureus RN4220 ugtP deletion, OD600 growth, 16 h; some inactives read as strong as hits; actives 0.54% (n = 330,000);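 active = z-score under -3 and OD600 up to 0.15 on both plates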;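 also: plate controls were untreated wells for no effect and antibiotic for full effect; wells of about 80 µL received 100 nL stock; the first replicate is given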
Autofluor counter – flagged as autofluorescent in microsphere protease counterscreen. compound autofluorescence counterscreen, microsphere flow cytometry; stronger effect = higher value. fluorescence intensity (test concentration not listed). actives 3.1% (n = 360,000);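 active = at least 3 SD above the mean of all compounds, about 16000 in these data; inconclusive = too few beads counted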;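 also: 100 nL of 1 mM stock went into each well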
Sa RN4220 lethal – kills Staphylococcus aureus RN4220; actives 0.33% (n = 330,000); S. aureus RN4220 growth, OD600, 16 h; inhibition, % (no concentration beside the values); AID 1259311;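 active = z-score of -3 or lower and OD600 up to 0.18 on both plates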;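 also: plate controls were untreated cells for no effect and reference antibiotic for full effect; stock transfer was 100 nL into about 80 µL; one replicate is shown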
PrP 5UTR inh – inhibition of PrP 5' UTR reporter expression. cell-based PrP 5' UTR mRNA reporter, plate reader. inhibition, % (no concentration beside the values). actives 0.35% (n = 340,000). AID 488862;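 active = every replicate at 50% or more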;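 also: 0 = median of the neutral control wells; tested in H4 reporter cells; numbers are from one replicate; inactives centre near -14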
BJeLR viability – BJeLR cell viability loss | actives 0.17% (n = 300,000) | inhibition, % (concentration not given with the values) | BJeLR (HRASV12) viability, CellTiter-Glo ATP luminescence, 48 h; reference of the scale not given here | AID 1554;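 active = replicate mean above 50%; inconclusive = above 50% but judged a plate artefact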;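 also: 50 nL library stock added to about 25 µL; numbers are from one replicate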
Mtb hypoxia rep growth – further read-out of Mtb hypoxia rep, marked with its call; growth inhibition, %; measured here: M. tuberculosis growth (absorbance);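 0% = vehicle and 100% = reference antibiotic; read after six days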
* = called active by the depositor; ? = inconclusive; / = no result given; & = joins results of further samples.

SMILES	Mtb hypoxia rep	Mtb hypoxia rep growth	Sa ugtP lethal	Autofluor counter	Sa RN4220 lethal	PrP 5UTR inh	BJeLR viability
CC1(C)CC(=O)C=C(Nc2ccc3c(c2)OCCO3)C1	5	6	0	2832	1.4	6	4
Cc1cc2nc3c(nc2cc1C)C1(C(=O)N(C)C)CCC3(C)C1(C)C (configuration not stated)	9	15	2	9437	3.7	-11	7
COc1cccc(/C=C2\SC(=O)N(CCC(=O)N3CCCCC3CCO)C2=O)c1 (configuration not stated)	2	-8	3	4500	5.4	-3	7
O=C(COc1ccc(Cl)cc1)NCCSCc1cccc(Cl)c1	19	10	-5	3220	-11	-8	-6
CC1=CC(C)(C)NC(=S)N1c1cccc(Cl)c1	18	8	4	3873	5.3	-5	/
Cc1cc(OCC(=O)Nc2ccc(N3CCCC3)cc2)cc(C)c1Cl	/	/	-7	2315	-7.4	-15	-1
Cc1nc(NC(=O)/C=C/c2ccccc2)sc1C(=O)Nc1cccc(Cl)c1	/	/	/	2382	/	-2	3
O=Cc1ccc(OCCN2CCCC2=O)cc1	3	12	1	4209	0.2	13	2
O=C(NCC1CCCO1)C1CCN(C2CCN(CCCC3CCCC3)CC2)CC1 (configuration not stated)	3	9	0	4031	0.4	5	3
COc1ccc(CC(=O)NCC2(N3CCCCC3)CCCCC2)cc1	-7	1	1	3875	-0.1	-13	6
COc1cccc2cc(C(C)OC(=O)Nc3ccc(C)cc3)oc12 (configuration not stated)	9	10	20	4135	4.2	-7	-16
O=c1cc(-c2ccsc2)oc2ccccc12	3	11	-12	3733	6.2	-12	/
Cc1[nH]c(C)c(S(=O)(=O)Nc2ccc(OC(F)(F)F)cc2)c1C(=O)N1CCCCC1	12	-3	-6	4672	0.7	-6	11
Cc1cccn2c(=O)c3cc(C(=O)NCc4ccc(F)cc4)c(=N)n(CC4CCCO4)c3nc12 (configuration not stated)	12	2	-1	6000	-2.6	-12	-4
Cc1cccc2cc(C#N)c(N3CCCC3)nc12	-1	6	22	7008	11	1	-6
CSc1nnc(-c2ccccc2)n1N	-7	4	-3	2483	4.7	-9	/
CCn1c(SC)nnc1-c1nnc(SC)n1CC	/	/	12	5381	-0.3	-17	9
Cc1sc2c(=O)n3c(nc2c1C(=O)NCCCN1CCOCC1)CCCCC3	8	12	0	2953	1.8	-30	4
CCCCn1c(SCC(=O)Nc2cccc(C)n2)nnc1-c1ccco1	16	5	4	4451	42	-1	-2
O=C1CC(N2CCN(Cc3ccccc3)CC2)C(=O)N1c1ccccc1 (configuration not stated)	3	5	-6	23947*	5.1	-33	3
Cc1ccc(-c2csc3ncn(-n4c(C)ccc4C)c(=O)c23)o1	/	/	/	3371	/	-26	-6
Cc1ccc(C2Cc3cc(O)c(O)cc3CN2)cc1 (configuration not stated)	7	6	-7	5791	1.7	/	2
COc1ccccc1-c1nc(C#N)c(N2CC(C)CC(C)C2)o1 (configuration not stated)	11	7	2	4649	3.0	-21	2
C/C(CC(=O)Nc1ccc(N(C)C)cc1)=N\NC(=O)C(=O)NCc1ccccc1	/	/	/	4470	/	-22	-7
CN(NC(=O)c1ccc(Cl)cc1Cl)C1=NS(=O)(=O)c2ccccc21	2	-3	-3	5924	8.8	-10	-14
COc1cccc(-c2cc(C(=O)Nc3cc(C)n(Cc4ccc(Cl)cc4)n3)no2)c1	14	9	-15	11138	-5.4	-22	2
COc1ccc(Cl)cc1N1Cc2ccccc2C1	/	/	-8	4895	7.9	7	6
CCN1C(=O)C2C(c3ccc(-c4ccc(C(C)=O)cc4)c(OC)c3)N3CCCC[C@@]3(C(=O)OC)C2C1=O (some centres not stated)	-11&0	5&9	6&-9	/	1.5&6.7	/	/
Cn1nnnc1SCC(=O)Nc1nc(-c2ccc(F)c(F)c2)cs1	3	3	-2	6022	3.4	-28	7
O=c1c2ccccc2[nH]c(=S)n1CCC1=CCCCC1	4	2	-11	2520	-0.4	-32	8
CNC(=O)Nc1ccccc1C(=O)Nc1ccccc1	3	5	-1	3314	-0.1	1	-9
O=C(Nc1ccc(Nc2ccccc2)cc1)c1ccc(Br)cc1	-6	-5	5	4342	6.1	-1	0
COc1cc(C2/C(=C(\O)c3ccc4c(c3)OCCO4)C(=O)C(=O)N2CCN2CCOCC2)cc(OC)c1OC (configuration not stated)	5	-4	12	4243	5.7	-2	-5
CC(C)C[C@@H]1NC(=O)[C@H](C(C)C)NC(=O)c2cc([N+](=O)[O-])cc(I)c2OCC[C@@H](C(N)=O)NC1=O	15	8	7	2918	3.0	-2	/
Cn1c(-c2ccccc2)cc2onc(-c3ccccc3)c2c1=O	7	4	13	3076	5.2	63*	/
CC(CC(=O)Nc1ccccc1C#N)=NNC(=O)c1ccncc1	/	/	-8	/	3.4	/	/
CC(=NCc1ccco1)c1c(O)n(Cc2ccccc2)c(=O)[nH]c1=O	/	/	-4	4120	0.5	1	6
CC(Oc1ccccc1)C(=O)N1CCN(c2ccc(N3CCCCC3)nn2)CC1 (configuration not stated)	5	4	2	4802	2.7	-23	8
O=C(O)c1ccccc1C(=O)Nc1ccc(Oc2cccc3ccccc23)cc1	17	3	-5	4338	3.9	30	0
CCCCc1ccc(NC(=S)N2CCCC(CO)C2)cc1 (configuration not stated)	17	6	4	2434	3.5	-50	-5

The closing 3 entries of the part before lead into the next.
SMILES	Mtb hypoxia rep	Mtb hypoxia rep growth	Sa ugtP lethal	Autofluor counter	Sa RN4220 lethal	PrP 5UTR inh	BJeLR viability
CC(Oc1ccccc1)C(=O)N1CCN(c2ccc(N3CCCCC3)nn2)CC1 (configuration not stated)	5	4	2	4802	2.7	-23	8
O=C(O)c1ccccc1C(=O)Nc1ccc(Oc2cccc3ccccc23)cc1	17	3	-5	4338	3.9	30	0
CCCCc1ccc(NC(=S)N2CCCC(CO)C2)cc1 (configuration not stated)	17	6	4	2434	3.5	-50	-5
COc1cc(NC(=O)CN2C(=O)NC(C)(CCC(C)C)C2=O)cc(OC)c1 (configuration not stated)	/	/	7	3695	-2.4	-12	-6
O=C(C1CCC(CNS(=O)(=O)c2cccc3nsnc23)CC1)N1CCN(c2ccccn2)CC1 (configuration not stated)	-6	-8	4	4020	5.6	-21	4
CCN(CC)c1ccc2cc(-c3nc4ccccc4[nH]3)c(=O)oc2c1	-40	1	-5	14129	4.2	58*	12
CCOc1ccc(NC(=O)CN2C(=O)CSC2=O)cc1	4	9	6	4768	1.4	-43	7
CSc1nc2ccc(NS(=O)(=O)c3c(Cl)cccc3Cl)cc2s1	6	1	1	6948	23	-15	-6
O=C(Nc1ccc(F)cc1)Nc1ccccc1N1CCCCC1	3	9	-19	4521	-3.3	1	-2
CC12CC3(C)CC(C)(C1)CC(C(=O)NCc1cccnc1)(C2)C3	1	-1	3	3575	7.6	11	-2
CC1CCCC(NC(=O)C2CC(=O)N(Cc3ccccc3)C2)C1C (configuration not stated)	-8	-6	-2	4223	-3.9	-6	1
COc1ccc(CCN(C)C2CC(=O)N(c3ccccc3)C2=O)cc1OC (configuration not stated)	8	7	6	3859	6.4	-13	-3
O=C(O)CCSc1nnc(COc2cccc3ccccc23)n1-c1cccc(Cl)c1	3	-4	-10	3970	13	-37	9
CCOc1ccc(CCNC(=O)COC(=O)c2cccnc2OCC)cc1OCC	4	3	12	16322*	2.4	-9	8
Cc1ccc(/C=C(\C#N)C(=O)NCCN2CCOCC2)cc1	-3	-2	1	3984	1.8	-13	4
O=C1C2C3C=CC(CC3)C2C(=O)N1N=Cc1ccccc1O (configuration not stated)	0	2	1	/	4.0	/	/
COC(=O)C1=C(O)/C(=C/c2cccc(OC)c2O)N=C1C	6	-7	6	3703	1.5	-42	4
COC(=O)CSc1nc(N)c2c3c(sc2n1)C(c1ccccc1)SC(c1ccccc1)C3 (configuration not stated)	7	-11	-9	2397	16	-18	47
CSc1nnc(C)c(=O)n1COC(=O)/C=C/c1ccccc1	7	-4	4	3622	4.5	-23	0
O=C(CCCOc1ccccc1)Nc1ccc(S(=O)(=O)N2CCOCC2)cc1	17	10	-7	3495	-13	-4	-5
COc1cc(OC)c2c(-c3cccc(-c4ccc(OC)c(F)c4)c3)cc(=O)oc2c1	-2	6	-1	3296	-2.7	33	/
Cc1nc2ncnn2c(C)c1CCC(=O)N1CCN(C(=O)c2ccco2)CC1	1	9	3	23084*	5.9	-15	-10
COC(=O)c1c(NC(=O)CN2C(=O)C(=O)N(CC(C)C)C2=O)sc(C)c1C	16	0	16	4654	4.0	-17	4
CC1CCc2c(sc3nc(CN4CCOCC4)nc(N4CCc5ccccc5C4)c23)C1 (configuration not stated)	9	6	-3	9423	-0.9	0	2
CCN(CC)S(=O)(=O)c1ccc(/C=C/C(=O)O)cc1	-8	9	-3	2591	0.2	-13	4
Cc1ccc(C2(C)NC(=O)N(CC(=O)NCc3cccs3)C2=O)cc1 (configuration not stated)	0	5	4	2132	1.4	-10	-5
Oc1ccc(N2CCN(c3ncnc4sc(-c5ccccc5)cc34)CC2)cc1	-2	6	12	4108	10	0	-8
O=C(Cc1c(Cl)cccc1Cl)NC1=NCCS1	-4	6	3	4515	0.0	-6	1
CC(=O)c1ccc(OCc2cc(C(=O)N(C)Cc3cc(C)no3)no2)cc1	7	2	1	5442	2.4	-22	3
O=C(c1nn(Cc2ccccc2)c(=O)c2ccccc12)N1CCN(C/C=C/c2ccccc2)CC1	15	16	-6	?	-13	-20	2
COc1ccc(OCc2cc(C(=O)N3CCCCCC3)no2)c(Cl)c1	7	4	9	3969	4.5	-12	3
COc1ccc(-c2nn(-c3ccccc3)cc2C(=O)O)cc1OC	2	-1	-3	10292	3.3	-54	-4
O=C(CN1C(=O)NC(Cc2c[nH]c3ccccc23)C1=O)Nc1cccc(S(=O)(=O)N2CCCC2)c1 (configuration not stated)	-5	11	1	4482	3.0	-27	-10
COc1cc(OC)cc(C(=O)NC(C(=O)O)C23CC4CC(CC(C4)C2)C3)c1 (configuration not stated)	8	4	-2	4323	5.4	-4	0
COc1cccc(NC(=O)CN(C)C(=O)CCNC(=O)c2ccccc2OC)c1	-7	1	13	4520	5.1	-21	/
CC1(C)CC(=O)C/C(=N/Nc2nc3ccccc3s2)C1	/	/	/	3949	/	-8	-3
COc1ccc(C2=NOC(Cn3nc(-c4ccccc4)cc3C(=O)O)C2)cc1 (configuration not stated)	1	4	-1	2998	2.6	-16	/
CCOC(=O)C1=C(C)N=C2SC(C)C(=O)N2C1c1cccc(F)c1 (configuration not stated)	/	/	-8	2729	-4.7	-6	0
COC(=O)Cn1c2ccccc2c2nc3ccccc3nc21	-8	13	-5	4077	1.9	-22	16
O=C(Nc1ccc(-c2nc3ccccc3o2)cc1)c1cccnc1	/	/	-4	2980	-1.1	-142	6
Cc1ccc(OCC(=O)N2N=C(c3ccc(Cl)cc3)CC2c2ccco2)c([N+](=O)[O-])n1 (configuration not stated)	6	15	-2	2665	3.9	-9	-4
Nc1nc(-n2cnnc2)nn1-c1ccccc1	-8	-15	1	9210	7.2	-16	15
O=C(COc1ccccc1)Nc1cc(S(=O)(=O)N2CCOCC2)ccc1N1CCCC1	-5	-2	4	8114	1.3	-11	/
O=C(COc1cc(O)c2c(=O)c3ccccc3oc2c1)OCc1ccccc1	-2	2	15	5075	6.8	4	2
COCc1cc(C)nc(NN=Cc2ccc(-c3cc(C(=O)O)ccc3Cl)o2)c1C#N	2	-5	5	/	5.4	/	/
CCCCCC(=O)Nc1cc(S(=O)(=O)N2CCCCC2)ccc1N1CCOCC1	4	6	7	6514	0.1	-32	3

Ordered by count of non-hydrogen atoms (lowest first): some entries from above.
SMILES	Mtb hypoxia rep	Mtb hypoxia rep growth	Sa ugtP lethal	Autofluor counter	Sa RN4220 lethal	PrP 5UTR inh	BJeLR viability
CCN(CC)c1ccc2cc(-c3nc4ccccc4[nH]3)c(=O)oc2c1	-40	1	-5	14129	4.2	58*	12
O=C(O)c1ccccc1C(=O)Nc1ccc(Oc2cccc3ccccc23)cc1	17	3	-5	4338	3.9	30	0
Cc1[nH]c(C)c(S(=O)(=O)Nc2ccc(OC(F)(F)F)cc2)c1C(=O)N1CCCCC1	12	-3	-6	4672	0.7	-6	11
